Screens: PubChem, National Center for Advancing Translational Sciences (NCATS)
AID923 – qHTS Assay for Allosteric/Competitive Inhibitors of Caspase-1: Spectroscopic Profiling in AFC Spectral Region; compound fluorescence, AFC spectral region (405/520 nm); almost no hit is shown here; Potency, µM (titrated, usually from 57.5 µM), inactives show top-dose fluorescence increase, actives largely listed as activators; actives 1.1% (n = 75,000); active = well fitted activation curve with a large enough effect; inconclusive = small, poorly fitted or top-dose-only effect;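 note: 0% is about no effect; scaled to a free AFC standard on each plate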
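Compound autofluorescence profiled at 405 nm ex/520 nm em during kinetic caspase 1 run (50 nM enzyme, 5 uM Ac-WEHD-AFC, HEPES pH 7.5, 10 mM DTT). Titration up to 57 uM; baseline from regression intercept, normalized to AFC standard curve.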
The depositor's hits bear a star; ? = inconclusive; & = joins results of further samples. Potency is the fitted concentration of half-maximal effect. A portion of the library; rates above refer to the full screens.

canonical_smiles	AID923
COc1cc(OC)c(C(C)=O)c(O)c1C	-1.3%
COC(=O)C1=C(C)N(Cc2cccnc2)C(=O)C1	-2.3%
CC1C(=O)CCC2[C@]1(C)CCC1[C@]2(C)CC[C@@]2(C)C3CC(C)(C)CC[C@]3(C)CC[C@@]12C (stereo partly drawn)	0.0%
C=C(CO)C1Cc2c(ccc3c(=O)c4c(oc23)COc2cc(OC)c(OC)cc2-4)O1 (stereo not drawn)	-1.1%
CC1(C)C2CC[C@@]1(C)C(=O)C2	-0.9%
NCCCC(N)CC(=O)NCC1NC(=O)C(CO)NC(=O)C(N)CNC(=O)C(C2CCN=C(N)N2)NC(=O)/C(=C\NC(N)=O)NC1=O (stereo not drawn)	2.9%
CCN(CC)c1ccc(C(NC(C)=O)NC(C)=O)cc1	1.1%
O=C(Cc1ccccc1)NO	3.3%
COC(=O)[C@@H]1C[C@H]1[C@@H](N)c1ccccc1	-1.2%
CSC(=O)NC12CC3CC(CC(C)(C3)C1)C2	0.6%
COC(=O)c1ccc(C23CC4(C2)[C@H](CN(CC2CCCCC2)[C@@H]4c2ccccc2)C3c2ccccc2)cc1 (stereo partly drawn)	-0.4%
Cc1c(C(=O)NCc2ccoc2)oc2ccc3c(c12)C(=O)CC(C)(C)O3	1.0%

Among those listed so far, 2 have an aryl methoxy group:
canonical_smiles	AID923
COc1cc(OC)c(C(C)=O)c(O)c1C	-1.3%
C=C(CO)C1Cc2c(ccc3c(=O)c4c(oc23)COc2cc(OC)c(OC)cc2-4)O1 (stereo not drawn)	-1.1%

The listing continues:
canonical_smiles	AID923
COc1cc(O)c(C(C)=O)c(OC)c1	1.6%
CC(=O)Oc1ccc2c(c1)CCC1C2CC[C@]2(C)C(=O)CCC12 (stereo partly drawn)	-1.2%
CC(C)Cc1cc(C(=O)Nc2sc3c(c2C#N)CCCC3)no1	0.6%
Fc1ccc([C@@H]2CCNC[C@H]2COc2ccc3c(c2)OCO3)cc1	-1.6%
COc1cc(C)c2c(=O)cc(-c3ccccc3)oc2c1	3.5%
CC(C)c1c(O)ccc2c1CCC1[C@@](C)(CO)CCC[C@@]21C (stereo partly drawn)	-3.9%
COC(=O)c1c(C)cc(OC(=O)c2c(C)cc(O)c(C=O)c2O)c(C)c1O	-3.3%
NC(Cc1c[nH]c2ccccc12)C(=O)O (stereo not drawn)	1.3%
CC(C)C(C)/C=C/C(C)C1CCC2C3=CC=C4CC(O)CCC4(C)C3CCC21C (stereo not drawn)	0.2%
CC(C)c1nc(N(C)S(C)(=O)=O)nc(-c2ccc(F)cc2)c1/C=C/C(O)CC(O)CC(=O)O (stereo not drawn)	-0.4%
Cc1onc(-c2ccccc2)c1-c1ccc(S(N)(=O)=O)cc1	0.2%
Cc1coc2cc3oc(=O)c4c(c3cc12)CCCC4	2.5%
Cc1cc(C(=O)N2CCN(c3ccccn3)CC2)no1	1.4%
O=C(NC(Cc1ccc2c(c1)OCO2)C(=O)N1CCCC1C(=O)O)c1ccccc1 (stereo not drawn)	-0.1%
Cc1ccc(O)c(C(=O)CC(=O)c2cccc(F)c2)c1	-2.7%
CCC1=C2CC[C@H]3C(=O)N(CC)C(=O)[C@H]3[C@H]2[C@@]2(Cc3ccccc3)C(=O)N(CCOC)C(=O)N2C1=O	0.1%
C=NC(C(=O)NC1C(=O)N2C1SC(C)(C)C2C(=O)O)c1ccccc1 (stereo not drawn)	-0.7%
CCc1nccn1S(=O)(=O)c1cc(Br)ccc1OC	-0.2%
COc1ccc2c(c1)OCc1c-2oc2cc(OC)ccc12	0.1%
COc1ccc(C(=O)O)c(O)c1OC	-0.8%
CC1O[C@@H](O[C@H]2C(Oc3cc(O)c4c(c3)OC(c3ccc(O)cc3)CC4=O)OC(CO)C(O)C2O)C(O)C(O)C1O (stereo partly drawn)	1.0%
CS(=O)(=O)CCCCN=C=S	-1.7%
COc1cc(C2c3cc4c(cc3C(O[C@@H]3OC5COC(c6cccs6)OC5C(O)C3O)C3COC(=O)C23)OCO4)cc(OC)c1O (stereo partly drawn)	1.7%
O=C(O)[C@H]1C(=CCO)O[C@H]2CC(=O)N12	1.1%

Single values from the entries so far.
Reading for `COc1cc(O)c(C(C)=O)c(OC)c1` in AID923: 1.6%
Reading for `Cc1ccc(O)c(C(=O)CC(=O)c2cccc(F)c2)c1` in AID923: -2.7%

Next section
canonical_smiles	AID923
COC(=O)CC1C(C)(C)C2(O)OC34CC2C(=O)[C@@]1(C)C3CC[C@]1(C)C4=CC(=O)OC1c1ccoc1 (stereo partly drawn)	-1.7%
Cc1noc(C)c1C(=O)NCCCc1ccccc1	6.5%
O=C(NCCn1ccc2ccccc21)c1ccc(S(=O)(=O)N2CCOCC2)cc1	-3.3%
CO/N=C(/C(=O)NC1C(=O)N2C(C(=O)O)=C(COC(N)=O)CSC12)c1ccco1 (stereo not drawn)	-1.1%
COc1ccc(/C=C/C(=O)c2cccs2)cc1OC	-2.7%
O=C(NCc1ccc2c(c1)OCO2)C1CC(=O)N(CCc2ccccc2)C1 (stereo not drawn)	-0.5%
O=C(CSc1nc2c(c(=O)n1-c1ccccc1)SCC2)N1CCOCC1	7.2%
NC(=O)NCCC[C@H](N)C(=O)O	-2.2%
O=C(Cn1c(=O)oc2cc(S(=O)(=O)NCc3ccccc3)ccc21)NCc1ccco1	0.4%
Cc1ccc2oc(=O)c3cnn(CC(=O)NC4CCC(C)CC4)c3c2c1 (stereo not drawn)	-2.5%
CNc1ccc(OC(F)F)cc1C(=O)c1ccccc1	0.2%
CCN1CCN(C(=O)NC(C(=O)NC2C(=O)N3C2SC(C)(C)C3C(=O)O)c2ccccc2)C(=O)C1=O (stereo not drawn)	-0.4%

Continued.
Compound | AID923
C=CCSCC(N)C(=O)O (stereo not drawn) | 0.5%
CCOc1ccc(C(=O)N2CCN(c3cccc(C)c3C)CC2)cc1 | -1.6%
CCC1=C(OC(=O)N(CC)CC)N2C(=O)OC(=NCC3CC3)[C@]2(Cc2ccccc2)[C@H]2C1=CC[C@H]1C(=O)N(C)C(=O)[C@H]12 | -0.2%
CN(C)CCc1c[nH]c2ccc(Cn3cncn3)cc12 | 0.3%
O=C(Nc1nc(-c2ccccn2)cs1)C1COc2ccccc2O1 (stereo not drawn) | -3.1%
O=C(Oc1ccccc1C(=O)O)c1ccccc1O | -0.7%
COC(=O)c1cccc(C23CC4(C2)[C@H](CN(C)[C@@H]4c2ccccc2)C3c2ccc(Cl)nc2)c1 (stereo partly drawn) | 0.2%
Cc1ccc(C)c(S(=O)(=O)n2cnc3ccccc32)c1 | -1.5%
COc1ccc(-c2cc(C(F)(F)F)n3nc(C(=O)O)cc3n2)cc1OC | 12%
CC(CCc1ccco1)NC(=O)Cn1ncc2c1-c1ccccc1OC2 (stereo not drawn) | 2.7%
O=C(Nc1ccccc1-c1nc2ccccc2s1)c1ccco1 | 12%
CN(C)/C=N/c1cc(=O)n(C)c(=O)n1Cc1ccccc1 | -1.9%
CCC1=C(OC(=O)N(CC)CC)N2C(=O)OC(=NCCc3c[nH]c4ccccc34)[C@]2(Cc2ccccc2)[C@H]2C1=CC[C@H]1C(=O)N(c3ccccc3)C(=O)[C@H]12 | 2.5%
COC(=O)CC1C(C)(C)C(O)C2CC3=C4CC(O)OC(c5ccoc5)[C@]4(C)CCC3[C@@]1(C)C2=O (stereo partly drawn) | -1.5%
C=CCn1c(C)c(C(C)=O)c(N2CCCC2)nc1=S | -0.2%
Nc1nc2ncc(CNc3ccc(C(=O)NC(CCC(=O)O)C(=O)O)cc3)nc2c(=O)[nH]1 (stereo not drawn) | 0.1%
CC1C(O)CC2C(C(=O)O)=CO[C@@H](O[C@H]3OC(CO)C(O)C(O)C3O)C21 (stereo partly drawn) | -1.3%
COC(=O)[C@@H]1C[C@@H]2CC[C@@H](O)C[C@@H]2N1Cc1ccc(OC)cc1 | -5.5%
Clc1ccc2nc(-c3ccccc3)[nH]c2c1 | 0.1%
CCOc1cccc(C(=O)Nc2cccc(-c3nnc(-c4ccccc4)o3)c2)c1 | 1.2%
COc1cccc2c1CCC1CC(=O)CC[C@@]21C (stereo partly drawn) | -3.6%
C[C@]12CCC(=O)C=C1CCC1C2C(O)C[C@]2(C)C1CC[C@]2(O)C(=O)COC(=O)CCC(=O)O (stereo partly drawn) | -3.7%
Nc1cc(=O)[nH]c(SCc2nc3ccccc3n2Cc2ccccc2)n1 | 1.0%
C[C@]12CCC3c4ccc(OS(=O)(=O)O)cc4CCC3C1CCC2=O (stereo partly drawn) | -1.3%

Arranged by SMILES length (high to low): some entries from above
Compound | AID923
CCN1CCN(C(=O)NC(C(=O)NC2C(=O)N3C2SC(C)(C)C3C(=O)O)c2ccccc2)C(=O)C1=O (stereo not drawn) | -0.4%
CC(C)C(C)/C=C/C(C)C1CCC2C3=CC=C4CC(O)CCC4(C)C3CCC21C (stereo not drawn) | 0.2%
C[C@]12CCC3c4ccc(OS(=O)(=O)O)cc4CCC3C1CCC2=O (stereo partly drawn) | -1.3%

(list continues)
Compound | AID923
NS(=O)(=O)c1cc(C2(O)NC(=O)c3ccccc32)ccc1Cl (stereo not drawn) | -1.4%
C[C@H]1[C@H]2CC[C@H]3C4CC=C5C[C@@H](N(C)C)CC[C@]5(C)C4CC[C@]23CN1C (stereo partly drawn) | 1.8%
CC1=CC(=O)C2=C(C)CCC3C(C)C(=O)OC3C12 (stereo not drawn) | -1.9%
O=C(O)CCCC(=O)NCCCCc1ccccc1 | -0.2%
CCC1=C(OC(=O)N(CC)CC)N2C(=O)OC(=NCC(=O)OC)[C@]2(Cc2ccccc2)[C@H]2C1=CC[C@H]1C(=O)NC(=O)[C@H]12 | -0.9%
O=C(O)CCCC[C@@H]1SC[C@H]2NC(=O)N[C@@H]12 | -3.5%
CN(N=O)C(=O)N[C@H]1C(O)C(O)C(CO)O[C@@H]1O (stereo partly drawn) | -2.7%
Cc1cc(N2C(=O)CC(Cc3ccccc3)C2=O)no1 (stereo not drawn) | 0.8%
COC(=O)CC1[C@@]2(C)C[C@]34OC5(C)OC6(C7CC(=O)OC(c8ccoc8)[C@]7(C)CCC6(O5)[C@]13C)C(OC(C)=O)[C@]4(OC(C)=O)C2OC(C)=O (stereo partly drawn) | -1.4%
COC(=O)c1ccc(C)c(NS(=O)(=O)c2ccc(NC(C)=O)cc2)c1 | -2.3%
COc1ccccc1CNC(=O)CN1CCN(Cc2ccc(Cl)cc2)C1=O | -0.6%
Cc1cc(O)c(C)c(O)c1C(=O)O | 1.0%
CC(=O)c1cc2c(cc1O)OC(C)(C)C=C2 | -1.2%
COC(=O)[C@@H]1C[C@@]2(O)[C@H](O)[C@H](O)[C@H](O)C[C@H]2N1Cc1ccc(N2CCOCC2)cc1 | -3.4%
NC(=O)c1cc[n+](CC2=C(C(=O)O)N3C(=O)C(NC(=O)C(c4ccccc4)S(=O)(=O)[O-])C3SC2)cc1 (stereo not drawn) | -0.9%
CNCC(O)c1cccc(O)c1 (stereo not drawn) | 0.0%
COc1cccc2oc(-c3ccccc3)cc(=O)c12 | -2.2%
CCC1=C2CC[C@H]3C(=O)N(c4ccccc4)C(=O)[C@H]3[C@H]2[C@@]2(Cc3ccccc3)C(=NCc3ccccc3)OC(=O)N2C1=O | 1.5%
CCC1=C2CC[C@H]3C(=O)N(CC)C(=O)[C@H]3[C@H]2[C@@]2(C)C(=NCC(=O)OC)OC(=O)N2C1=O | -1.8%
COC(=O)C1OC(=O)C2OC23[C@]2(C)C(O)CC4C(C)(C)C(OC(C)=O)CC(OC(C)=O)[C@@]4(C)C2CC[C@@]13C (stereo partly drawn) | -0.6%&-0.3%
CC1(C)C(=O)C=C[C@@]2(C)C1C=C[C@@]1(C)C2CC[C@@]2(C)C(c3ccoc3)OC(=O)C3OC312 (stereo partly drawn) | -0.7%
Cc1ccc(C(C)C)cc2c(C)ccc1-2 | -0.3%
C[C@@H]1/C(=N/O)CC2C[C@@H]1C2(C)C | -0.7%
O=C(/C=C/c1ccccc1)c1ccc(O)cc1O | ?
COc1cc(C2CC(=O)C=C(O)C2)cc(OC)c1OC (stereo not drawn) | -0.1%
CC(=O)Oc1ccc(C)cc1N1C(=O)c2ccc(C(=O)O)cc2C1=O | 1.8%
COC(=O)c1ccc(C(NC(=O)OCc2ccccc2)/C(C)=C/[C@@H](C)C(=O)Nc2ccc(OC)cc2)cc1 (stereo partly drawn) | 0.9%
O=C(OC1Cc2c(O)cc(O)cc2OC1c1cc(O)c(O)c(O)c1)c1cc(O)c(O)c(O)c1 (stereo not drawn) | -1.2%
CCC(C)C(=O)OC1CCC=C2C=CC(C)C(CCC3CC(O)CC(=O)O3)[C@@H]21 (stereo partly drawn) | 1.1%
C=C1C2CC[C@@]3(C)C(c4ccoc4)OC(=O)C[C@@]13OC1CC(OC(C)=O)C(C)(C)C(CC(=O)OC)[C@@]12C (stereo partly drawn) | 1.2%
O=C(CC1SC(=Nc2ccccc2)N(CCCCO)C1=O)NCc1ccccc1 (stereo not drawn) | -1.5%
Cc1cccc(-c2nc3ccccc3c3nncn23)c1 | -1.4%
COC(=O)[C@@H]1C[C@@]2(O)[C@H](O)[C@H](O)[C@H](O)C[C@H]2N1CC1CCCCC1 | -0.2%
O=C(O)c1cc(O)c2c(c1)[C@H]([C@H]1c3cc(C(=O)O)cc(O)c3C(=O)c3c(O[C@@H]4OC(CO)C(O)C(O)C4O)cccc31)c1cccc(O[C@@H]3OC(CO)C(O)C(O)C3O)c1C2=O (stereo partly drawn) | 3.8%
CCC(=O)c1c(O)cc(O)cc1O | -1.1%
O=c1oc2cc(O)ccc2s1 | 0.5%
N#CCC(=O)NC(=O)NCC1CC1 | -1.1%
CSc1cccc(NC(=O)CN(c2ccc(C)cc2C)S(C)(=O)=O)c1 | 2.7%
COc1cccc(-c2cc(C(=O)N3CCCCCC3)no2)c1 | 2.5%
CN(C)/C=N/c1cc(=O)n(Cc2ccccc2)c(=O)n1C | 0.8%
C=C1C(=O)O[C@@H]2C3OC3(C)CC/C=C(\C)CC[C@@H]12 (stereo partly drawn) | -1.5%
